Screening data from PubChem.
Beta cell apopt = inhibitors of cytokine-induced beta cell apoptosis, primary screen, luminescence; INS-1E cytokine-induced death, ATP luminescence, 48 h; percent of positive-control rescue, neutral wells zero; protection from apoptosis, % (no concentration beside the values); 300,000 tested, 0.8% active; AID 435005, 2010;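 active = all replicates at 75% or more, or half of them and the mean; inconclusive = half reach 75% but not the mean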;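 also: 0% = cytokine-treated negative control wells and 100% = positive control rescue; higher means more ATP so stronger rescue from cytokine killing; wells of about 40 µL received 100 nL stock; the first replicate is given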
ALR inh = inhibitors of human ALR sulfhydryl oxidase, primary screen, biochemical, H2O2 detection, HRP-luminol luminescence, single point. FAD-linked sulfhydryl oxidase ALR (Homo sapiens), P55789. purified ALR, DTT oxidation. inhibition, % (no concentration beside the values). 290,000 tested, 3.8% active. AID 485317, 2010;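 active = mean and each replicate at 75% or more; inconclusive = only one of the two met; inactive = neither met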;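 also: stock transfer was 7.5 nL into about 7.5 µL; 0% = neutral wells and 100% = wells with inactivated enzyme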
Target sequence (P55789 whole entry, looked up): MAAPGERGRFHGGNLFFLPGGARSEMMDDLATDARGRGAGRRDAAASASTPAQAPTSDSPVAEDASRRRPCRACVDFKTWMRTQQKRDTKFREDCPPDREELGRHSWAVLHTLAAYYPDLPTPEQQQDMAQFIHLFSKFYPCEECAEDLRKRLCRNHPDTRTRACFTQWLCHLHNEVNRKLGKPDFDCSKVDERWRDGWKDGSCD
MLL AF4-AF9 inh = inhibitors of AF4 peptide binding to AF9, primary screen, biochemical, AlphaScreen, biotin-AF4 peptide, FLAG-AF9, single point; Protein AF-9 (Homo sapiens), P42568; inhibition, % at 10 µM; 350,000 tested, 0.47% active;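 active = every replicate reaching a set inhibition limit, whatever the replicate mean, cut at about 25% in these data; inconclusive = mean inhibition reaches that limit but some replicates miss it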;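 also: 0% = plate neutral control median and 100% = total signal loss; the record names both 10 and 1 µM as test concentration; the first replicate is given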
Target sequence (P42568 whole entry, looked up): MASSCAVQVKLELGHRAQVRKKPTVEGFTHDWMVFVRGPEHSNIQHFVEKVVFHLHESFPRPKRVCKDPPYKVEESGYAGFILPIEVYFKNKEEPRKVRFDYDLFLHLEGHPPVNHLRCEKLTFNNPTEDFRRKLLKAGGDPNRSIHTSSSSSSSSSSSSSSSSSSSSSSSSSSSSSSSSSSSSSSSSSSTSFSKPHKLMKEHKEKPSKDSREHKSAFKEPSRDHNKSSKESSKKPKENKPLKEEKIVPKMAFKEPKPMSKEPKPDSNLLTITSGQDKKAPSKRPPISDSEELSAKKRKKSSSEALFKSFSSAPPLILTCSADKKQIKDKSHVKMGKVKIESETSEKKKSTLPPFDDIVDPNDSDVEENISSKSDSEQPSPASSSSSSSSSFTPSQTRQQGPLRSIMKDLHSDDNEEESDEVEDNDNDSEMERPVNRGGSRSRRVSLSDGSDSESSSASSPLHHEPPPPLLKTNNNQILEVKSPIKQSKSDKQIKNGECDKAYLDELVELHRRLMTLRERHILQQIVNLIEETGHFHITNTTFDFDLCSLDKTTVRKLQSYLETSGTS
rRNA inh HTS = reduced GFP signal of wild-type E. coli, primary screen, bacterial rRNA inhibitor project, GFP/RFP fluorescence, OD600, single point | AID 720706, 2013 | GFP signal change (wild-type ribosome), % (concentration not given with the values) | E. coli WT GFP vs humanized-ribosome RFP mutants, 24 h; stronger effect = lower value; DMSO median 0, no signal -100 | 350,000 tested, 1.6% active;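 active = significant combined selectivity score with lowered wild-type GFP, culture density cut under 30%, mutant RFP and density less affected; inactive = any of these conditions unmet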; also: one replicate is shown; some compounds called inactive have numbers as strong as hits
FGF22 binding = binders of human FGF22 protein, primary screen, FGF22 synaptogenesis inhibitor project, biophysical, thermal shift, single point | recombinant FGF22 thermal shift, SYPRO orange fluorescence; percent of sucrose octasulfate shift, DMSO zero | 340,000 tested, 1.5% active | Fibroblast growth factor 22 (Homo sapiens), Q9HCT0 | AID 651658, 2012 | calls only at 9.99 µM;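 active = melting point raised past a set limit in the mean and every replicate; inconclusive = no clear call; three in four hits are not shown here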
Target sequence (Q9HCT0 whole entry, looked up): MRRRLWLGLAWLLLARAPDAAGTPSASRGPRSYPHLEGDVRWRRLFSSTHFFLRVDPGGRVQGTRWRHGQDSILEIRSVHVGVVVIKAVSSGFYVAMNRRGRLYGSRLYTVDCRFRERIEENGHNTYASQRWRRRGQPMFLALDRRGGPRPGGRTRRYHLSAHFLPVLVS
RanGTP-Impb inh = inhibitors of RanGTP-importin-beta interaction, primary screen, biochemical, FRET, CFP-Ran, YFP-importin-beta, homogeneous | cell-free CFP-Ran/YFP-importin-beta FRET ratio | inhibition, % (concentration not given with the values) | 300,000 tested, 1.1% active | AID 2216, 2009;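 active = most replicates above 15%; inconclusive = exactly half above 15%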;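 also: 0% = DMSO wells and 100% = Ran loaded with GDP instead of GTP; wells of about 40 µL received 100 nL stock; the first replicate is given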
T cruzi inh = inhibitors of intracellular T. cruzi growth, primary screen, luminescence, NIH3T3 host cells | T. cruzi beta-gal in NIH3T3, 90 h | inhibition, % (no concentration beside the values) | 300,000 tested, 1.4% active;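 active = mean inhibition across valid replicates above about 55%, limit read from the data; inconclusive = mean below that limit but half or more replicates reach it; inactive = mean below it, under half of replicates reach it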;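 also: signal also drops with host cell toxicity which is not excluded here; 0% = plate median of DMSO wells and 100% = zero luminescence signal; higher percent means less beta-gal luminescence so fewer parasites; stock transfer was 50 nL into about 50 µL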
Calb FLC = C. albicans growth inhibition with fluconazole, primary screen, CaCi-2 strain, Alamar Blue fluorescence; C. albicans CaCi-2 (fluconazole-resistant clinical isolate) + fluconazole, 48 h; growth inhibition, % (concentration not given with the values); 300,000 tested, 0.57% active;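 active = most replicates above 75%; inconclusive = exactly half above 75%; inactive = most below 75%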;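 also: all wells also contain fluconazole at 8 µg/ml as a sub-toxic cotreatment; 0% = median of DMSO wells and 100% = median of geldanamycin control wells; wells of about 8 µL received 7.5 nL stock; the first replicate is given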
rRNA inh HTS OD600 = also measured in rRNA inh HTS; calls as there; OD600 change, %; measured here: OD600 growth;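 optical density of the mix in the first replicate; 0 = DMSO median and -100 = no signal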
rRNA inh HTS RFP = second read-out of rRNA inh HTS, no call of its own (marks repeat the call); RFP signal change, %; measured here: RFP humanized mutant strains;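 first replicate; 0 = DMSO median and -100 = no signal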
Starred values were filed as active, the others as inactive; i = inactive; ? = inconclusive; / = no result given; + = active, no number. Some of the compounds tested (hit frequency here may not be typical).

SMILES	Beta cell apopt	ALR inh	MLL AF4-AF9 inh	rRNA inh HTS	rRNA inh HTS OD600	rRNA inh HTS RFP	FGF22 binding	RanGTP-Impb inh	T cruzi inh	Calb FLC
CC(C)(C)N(Cc1ccccc1)C(=O)CSc1nnc(CNc2ccc(F)cc2)o1	11	-32	/	/	/	/	/	-2.4	39	13
COC(=O)c1sc(NC(=O)Cc2cccs2)nc1C	-1	-1	/	/	/	/	/	0.0	-3	20
COc1cc(S(=O)(=O)Nc2ccc(Br)cc2)ccc1N	-7	5	-1.9	7	-9	9.8	i	-6.2	3	-4
COc1ccc(C2=NN(C(=O)CN3CCCCC3)C(c3ccc(C)cc3)C2)cc1 (centres undefined)	-2	-6	6.0	-20	-6	-0.6	i	-3.4	32	1
C=CCNc1nc(Cl)ncc1F	-10	-3	/	/	/	/	/	0.7	-14	-9
c1ccc(C2CC(c3cccs3)=NN2c2ccccc2)cc1 (centres undefined)	11	/	-6.8	2	-8	15	i	12	28	1
COC(=O)CCCC1=CC2=CC(=O)C(C)(OC(=O)c3cccs3)C(=O)C2=CN1Cc1ccccc1 (centres undefined)	-5	-26	2.9	14	27	24	i	0.2	20	34
CCCCN1C(=O)c2ccc(C(=O)Nc3ccccc3N3CCOCC3)cc2C1=O	-7	3	-0.3	1	3	-1.8	i	-2.9	5	-24
CCCCC(=O)NC1(C(F)(F)F)C(=O)Nc2c1c(=O)[nH]c(=O)n2Cc1ccco1 (centres undefined)	1	-1	/	/	/	/	/	-5.9	10	-1
Cc1cc(/C=C(/C#N)c2nc3ccccc3[nH]2)c(C)n1-c1cc(C(=O)O)cc(C(=O)O)c1	/	/	-2.4	43	18	15	/	/	8	22
CCC(C(=O)Nc1cc(OC)c(NC(=O)c2ccccc2)cc1OC)c1ccccc1 (centres undefined)	9	-36	-0.8	14	7	2.3	i	0.1	-15	36
CCC(CC)c1nnc(NC(=O)C2CCN(C(=O)c3ccco3)CC2)s1	-3	1	-1.1	-22*	-17*	-5.9*	i	-1.3	2	8
COC(=O)c1ccc(NC(=O)[C@H](C)NC(N)=O)cc1	2	-14	-20	4	1	-0.8	i	0.1	7	-1
O=C(C1CCC(C(=O)N2CCc3ccccc32)CC1)N1CCc2ccccc21 (centres undefined)	/	-5	/	/	/	/	/	0.3	2	-1
CN(CC(N)=O)S(=O)(=O)c1ccc(F)cc1	-10	-7	/	/	/	/	/	1.8	-11	13
Cc1ccc(S(=O)(=O)CC(=O)c2ccccc2)cc1	-11	-6	/	/	/	/	/	0.2	-2	1
O=C(NCCOc1ccc(Cl)cc1)c1ccco1	0	/	-3.5	-1	1	-1.3	i	-3.0	3	-6
O=C(Nc1ccc(S(=O)(=O)N2CCc3ccccc3C2)cc1)C1CCCO1 (centres undefined)	5	-8	9.5	-13	-19	32	i	-3.6	16	-6
COc1ccc2c(c1OC)C(=O)N1C2SC(C)(C)[C@H]1C(=O)NC(C)C (some centres undefined)	-7	-2	0.0	5	1	-1.9	i	1.1	-6	-1
CCN(CC)CC(O)COc1ccc2c(c1)OCO2 (centres undefined)	/	-22	/	/	/	/	/	0.6	2	3
CCC(C)N1CC(=O)N2C(c3ccc(OC)cc3OC)c3[nH]c4ccccc4c3C[C@H]2C1=O (some centres undefined)	8	-20	5.4	-7	0	0.3	i	1.3	7	16
CC(C)CN1C(=O)c2ccc(NC(=O)c3ccco3)cc2C1=O	5	-1	-1.6	-6	2	-14	i	0.2	-11	?
Cc1c([N+](=O)[O-])c(C(=O)Nc2ccc3c(c2)OCCO3)nn1C	5	-3	/	7	8	-4.8	/	-0.5	0	0
O=C(Cn1c2ccccc2c(=O)c2ccccc21)Nc1cccc(F)c1	-2	6	-2.5	0	8	-0.6	i	60*	15	-13

3 entries out of the list, arranged by number of heavy atoms, smallest number first.
SMILES	Beta cell apopt	ALR inh	MLL AF4-AF9 inh	rRNA inh HTS	rRNA inh HTS OD600	rRNA inh HTS RFP	FGF22 binding	RanGTP-Impb inh	T cruzi inh	Calb FLC
CN(CC(N)=O)S(=O)(=O)c1ccc(F)cc1	-10	-7	/	/	/	/	/	1.8	-11	13
COC(=O)c1ccc(NC(=O)[C@H](C)NC(N)=O)cc1	2	-14	-20	4	1	-0.8	i	0.1	7	-1
O=C(Cn1c2ccccc2c(=O)c2ccccc21)Nc1cccc(F)c1	-2	6	-2.5	0	8	-0.6	i	60*	15	-13

The list continues.
SMILES	Beta cell apopt	ALR inh	MLL AF4-AF9 inh	rRNA inh HTS	rRNA inh HTS OD600	rRNA inh HTS RFP	FGF22 binding	RanGTP-Impb inh	T cruzi inh	Calb FLC
OC(COc1ccc2ccccc2c1Cl)CN1CCOCC1 (centres undefined)	-1	-26	/	/	/	/	/	5.3	-11	/
O=C(N/N=C/c1cccc(Oc2ccccc2)c1)c1cccc(O)c1	-5	-8	4.3	0	1	0.7	+	-0.3	17	49
C=C(C)CNC(=S)N/N=C/c1ccccc1OCC(=O)O	-4	13	-2.2	22	11	1.1	i	-1.5	-13	0
CC(=O)N1CCN(c2cc3c(cc2F)c(=O)c(C(=O)O)cn3C2CC2)CC1	-7	-22	-0.7	-56	-78	-27	i	5.4	-4	-2
CCC(C)n1nccc1NC(=O)C(C)OC(=O)c1cc2ccccc2[nH]1 (centres undefined)	-3	/	/	/	/	/	/	2.4	1	-14
CC1CN(C(=O)CSc2nc(-c3ccccc3)cs2)CC(C)O1 (centres undefined)	0	-10	/	/	/	/	/	-1.8	4	-3
COc1cccc(N=Nc2c(N)[nH]n3c(=O)cc(-c4ccccc4)nc23)c1	26	-2	/	/	/	/	/	4.3	/	5
CC(=O)Nc1ccc(C(=O)NNC(=O)CCCCC(=O)NNC(=O)c2ccc(NC(C)=O)cc2)cc1	-9	0	-1.9	9	5	-3.6	i	3.1	5	10
Cc1c(O)ccc2c(-c3ccccc3)cc(=O)oc12	5	-13	-0.3	-49	-65	-7.6	i	-5.1	-14	26
CCN(CC1CCCN(CCc2cccc(OC)c2)C1)C(=O)c1ccoc1C (centres undefined)	0	2	-0.2	4	12	-0.9	i	-1.1	51	-1
COC(CN(C)C(=O)C1CCC(CNS(=O)(=O)c2ccccc2)CC1)OC (centres undefined)	-4	-4	-0.2	16	21	11	i	1.6	-15	-8
Cc1oc2cc([N+](=O)[O-])c(O)c([N+](=O)[O-])c2c1C(=O)c1ccc(Cl)cc1	3	-4	-7.3	-48	-41	-11	i	?	8	38
CCCN1CCN(CC(=O)Nc2nnc(CC)s2)CC1	-1	-5	3.4	11	6	1.2	i	2.0	3	-1
COc1ccc(Nc2cc(Nc3ccc(OC)cc3)ncn2)cc1	0	3	-0.3	9	8	-0.3	i	-0.4	0	-1
COC(=O)[C@@]12CCCN1[C@H](c1ccc(-c3cccc(Cl)c3)c(OC)c1)[C@H]1C(=O)N(C)C(=O)[C@H]12	3	1	7.4	13	2	21	i	-4.5	-2	8
Cc1cc(=O)[nH]c(SCC(=O)Nc2ccc(F)c([N+](=O)[O-])c2)n1	-14	98*	-11	8	24	0.5	i	-1.8	-7	4
COc1ccc(-n2c(=O)c3ccccc3n(CC(=O)NC3CCCC3)c2=O)cc1	0	4	/	/	/	/	/	5.0	-22	-10
Cc1cc(=O)n2nc(N3CCC(C(=O)NCc4ccccc4F)CC3)sc2n1	-4	/	-3.1	-7	7	-0.3	i	?	1	?
Cc1ccnc(NC(=O)C(C)n2cc([N+](=O)[O-])cn2)c1 (centres undefined)	-10	/	1.3	12	7	1.6	i	?	-4	10
CC(=O)N1CCN(c2ccc(NC(=S)NC(=O)COc3ccc(C(C)(C)C)cc3)cc2)CC1	1	-2	/	/	/	/	/	0.8	-24	43
COc1ccc(N=NC2=C(O)CC(C)(C)CC2=O)c(OC)c1	5	1	/	/	/	/	/	-17	12	18
Cc1cc(C)c2ccc3c(C)c(C)n(C)c3c2n1	0	-5	0.6	14	3	-4.9	i	-2.8	3	1
O=C(CSc1nnc2scc(-c3ccccc3)n12)N1CCN(Cc2ccccc2)CC1	4	/	/	/	/	/	/	?	18	3
Cc1ccc(/C=N/OC(=O)c2c(C)noc2-c2snnc2C)cc1	4	/	2.3	7	9	3.1	i	2.7	/	11
O=c1c(-c2ccc3c(c2)OCCO3)c(C(F)(F)F)oc2cc(O)cc(O)c12	2	11	/	/	/	/	/	5.5	-13	-24
COc1ccccc1-c1cc(-c2ccccc2)nc(SC(C(N)=O)c2ccccc2)c1C#N (centres undefined)	41	-8	/	/	/	/	/	0.3	46	-9
Cc1cc(N2CCCC2=O)cc(C)c1S(=O)(=O)NCCOc1ccc(C(C)(C)C)cc1	109*	-6	/	-5	-8	-2.3	/	-6.2	14	18
Cc1ccccc1NC(=O)c1c(F)c(F)c(F)c(F)c1F	6	-4	/	/	/	/	/	0.8	4	3
COCCNC(=O)/C(C#N)=C/c1c(N2CCN(c3ccc(OC)cc3)CC2)nc2c(C)cccn2c1=O	-2	31	9.6	16	7	4.0	i	19*	19	4
CC(C)(CCO)NC(=S)NC1CC2C=CC1C2 (centres undefined)	3	17	-3.3	2	-12	-1.0	i	-0.7	-10	0
CCCC(C(=O)NC1CCCC1)N(C(=O)c1snc(C(N)=O)c1N)c1ccc(OCC)cc1 (centres undefined)	6	1	-2.0	12	10	1.1	i	3.5	9	9
CCCCNC(=O)CSc1nc(COc2ccccc2)nc2ccccc12	-9	9	-4.0	11	18	4.8	/	5.6	7	3
Nc1ccccc1Nc1ccccc1	44	?	/	/	/	/	/	-13	27	7
O=C(CN1CCN(Cc2ccccc2)CC1)N/N=C/c1ccccc1F	-10	-4	-0.9	/	/	/	i	1.4	-2	-1
COCCNC(=O)[C@@H]1CSC2c3ccccc3C(=O)N21 (some centres undefined)	-3	7	-2.9	15	14	-3.0	i	-1.3	-3	8
CN(C)C(=O)COC(=O)/C=C/c1ccccc1[N+](=O)[O-]	2	-17	/	/	/	/	/	2.4	-24	-7
CC1(C)Cc2nc3sc4c(N5CCCC5)nnnc4c3cc2CO1	3	12	/	/	/	/	/	-0.4	-17	-4
N=c1c(S(=O)(=O)c2ccc(Cl)cc2)cc2c(=O)n3ccccc3nc2n1CCc1ccccc1	3	-15	0.5	11	6	-0.8	i	50*	58*	0
COc1ccc(Cn2c(O)c(C=Nc3ccccc3)c3ccccc3c2=O)cc1	2	-13	-4.8	6	11	0.4	i	-5.5	31	-4
CCOC(=O)/C(C#N)=C/c1c(N2CCN(C)CC2)nc2c(C)cccn2c1=O	5	-13	5.0	8	13	0.9	i	-30	9	-14
Cc1ccc(-c2ccc(=O)n(Cc3ccc(F)cc3Cl)n2)cc1	-8	0	-2.3	-18	-30	-0.5	i	-2.3	-3	2
COC(=O)c1cc(C(=O)c2ccc(Cl)cc2Cl)cn1C	5	/	/	/	/	/	/	-1.2	-21	42
